# Source: PubChem BioAssay (ICCB-Longwood Screening Facility, Harvard Medical School)
# fixLJ activator = increases Burkholderia fixLJ two-component signaling | B. multivorans fixK-promoter GFP reporter, 18 h; hits give high values | z-score (test concentration not listed) | 29,000 compounds, 0.3% hits | AID 1918990;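 active = replicate mean overnight rise in green fluorescent reporter signal, 3 or more SD over negative controls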;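 note: score is relative to vehicle wells of the plate; 300 nL library stock went into each well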
# Numbers without * were called inactive; & = joins results of further samples. Only part of the results is shown, so the mix of outcomes need not match the whole.
SMILES,fixLJ activator
COc1ccc(CNC(=O)c2cc3c(s2)-c2c(C)cccc2OC3)cc1,0.7
COc1ccc(N2CCN(CC(O)COc3ccc(C(C)(C)C)cc3)CC2)cc1 (stereo not drawn),-0.51
Cc1ccccc1C(=O)n1nc(-c2ccco2)nc1NCc1ccc(Cl)cc1,-1.7
Cc1nc2nc[nH]n2c(=O)c1CCC(=O)Nc1ccc(F)cc1,-0.05
CCOC(=O)c1nc(Nc2ccc(C(=O)OC)cc2)c2ccccc2n1,-2.4
CSc1ccc2c(c1)N(CCC1CCCCN1C)c1ccccc1S2 (stereo not drawn),-0.97&-0.47
COCCCNC(=O)CCCn1c(=O)c2ccccc2n(CC(=O)Nc2ccc(C)cc2Cl)c1=O,-0.46
Cc1cccc(C(=O)Nc2ccccc2OCc2cc(=O)n3c(C)csc3n2)c1,-1.4
O=C(CSc1nnc(CNC(=O)c2c(F)cccc2Cl)o1)Nc1ccccc1F,-0.71
Cn1ccnc1CN1CCN(C(=O)CCc2nc3ccccc3[nH]2)CC1,-0.82
O=C(Cc1ccsc1)N1CCCN(c2nc(-c3ccccc3)no2)CC1,-1.9
CC(=O)Nc1cc([As](=O)(O)O)ccc1O,-0.84
Cc1ccc(-n2c(=O)c3c4c(sc3n(CC(=O)c3ccc(Cl)cc3)c2=O)CCC4)cc1C,-0.58
Cc1nc2c(c(C)nn2-c2ccccc2)c(C)c1CCC(=O)NCCc1ccccc1,-1.7
Cc1ccc(C(=O)NC(C)C)cc1NC(=O)C1CC2C=CC1C2 (stereo not drawn),0.43
COc1ccc(S(=O)(=O)N2CC[C@@]3(C(=O)O)CCCN(C)[C@@H]3C2)cc1,-0.32
CCOC(=O)COc1ccc(C)cc1C(=O)c1ccn2nc(-c3ccc(Cl)cc3)cc2n1,-0.27
CS(=O)(=O)N(CC(=O)NCCSc1ccccc1)c1cc(C(F)(F)F)ccc1Cl,-1.3
CC(NC(=O)c1ccc2c(c1)N(Cc1ccc(Cl)cc1)C(=O)c1ccccc1S2=O)c1ccccc1 (stereo not drawn),-0.5
O=C1c2ccccc2C(=O)C1c1ccc(Br)cc1,-0.45

# Another view of part of the listing above:
SMILES	fixLJ activator
COc1ccc(N2CCN(CC(O)COc3ccc(C(C)(C)C)cc3)CC2)cc1 (stereo not drawn)	-0.51
Cc1ccccc1C(=O)n1nc(-c2ccco2)nc1NCc1ccc(Cl)cc1	-1.7
Cc1nc2nc[nH]n2c(=O)c1CCC(=O)Nc1ccc(F)cc1	-0.05
CCOC(=O)c1nc(Nc2ccc(C(=O)OC)cc2)c2ccccc2n1	-2.4
CSc1ccc2c(c1)N(CCC1CCCCN1C)c1ccccc1S2 (stereo not drawn)	-0.97&-0.47
COCCCNC(=O)CCCn1c(=O)c2ccccc2n(CC(=O)Nc2ccc(C)cc2Cl)c1=O	-0.46
Cc1cccc(C(=O)Nc2ccccc2OCc2cc(=O)n3c(C)csc3n2)c1	-1.4
O=C(CSc1nnc(CNC(=O)c2c(F)cccc2Cl)o1)Nc1ccccc1F	-0.71
Cn1ccnc1CN1CCN(C(=O)CCc2nc3ccccc3[nH]2)CC1	-0.82
O=C(Cc1ccsc1)N1CCCN(c2nc(-c3ccccc3)no2)CC1	-1.9
CC(=O)Nc1cc([As](=O)(O)O)ccc1O	-0.84
Cc1ccc(-n2c(=O)c3c4c(sc3n(CC(=O)c3ccc(Cl)cc3)c2=O)CCC4)cc1C	-0.58
Cc1nc2c(c(C)nn2-c2ccccc2)c(C)c1CCC(=O)NCCc1ccccc1	-1.7
Cc1ccc(C(=O)NC(C)C)cc1NC(=O)C1CC2C=CC1C2 (stereo not drawn)	0.43
COc1ccc(S(=O)(=O)N2CC[C@@]3(C(=O)O)CCCN(C)[C@@H]3C2)cc1	-0.32
CCOC(=O)COc1ccc(C)cc1C(=O)c1ccn2nc(-c3ccc(Cl)cc3)cc2n1	-0.27
CS(=O)(=O)N(CC(=O)NCCSc1ccccc1)c1cc(C(F)(F)F)ccc1Cl	-1.3
CC(NC(=O)c1ccc2c(c1)N(Cc1ccc(Cl)cc1)C(=O)c1ccccc1S2=O)c1ccccc1 (stereo not drawn)	-0.5

# The list continues:
SMILES,fixLJ activator
CCCC12CN3CC(CCC)(CN(C1)C3c1c[nH]c3ccc(OC)cc13)C2=O (stereo not drawn),-1.3
CCN1CCOC(=O)C1CC(=O)Nc1cccc(OC)c1 (stereo not drawn),-0.55
Cc1nn(-c2ccccc2)c(OC(=O)C(C)C)c1Sc1ccccc1,-1.7
Cc1ccc2oc3c(c(=O)c2c1)C(c1ccccc1F)N(c1ccccn1)C3=O (stereo not drawn),-0.69
O=C(NCc1ccc(F)cc1)c1ccc(NC(=O)N2CC3CCCN3c3ccccc32)cc1 (stereo not drawn),-0.3
COc1cccc(NC(=O)c2nnn(Cc3ccc(OC)c(Br)c3)c2N)c1,0.32
Cc1ccc(-c2[nH]c(-c3ccccc3)nc2SCC(=O)NCC2CCCO2)cc1 (stereo not drawn),-1.6
CO[C@@]12CCC(NC(C)=O)CC1N(C(=O)c1cc(-c3ccccc3)n[nH]1)CC2 (stereo partly drawn),-0.2
CCCCCCC1CCC(C(=O)NC(C(=O)O)C(C)C)CC1 (stereo not drawn),-1.5
COc1ccc(-n2c(Cc3ccccc3)nnc2SCc2nc(-c3cccs3)no2)cc1,-1.5
CN1CCc2c(sc3c2C(=O)NC(c2ccc(OC(=O)c4ccc(Cl)cc4)cc2)N3)C1 (stereo not drawn),-0.43
C=CCCC(=O)N1CCC[C@]2(C1)CN(C(=O)CCC)CCC2O (stereo partly drawn),0.08
CCOc1ccccc1Nc1nc(-c2ccc(C)cc2)c(CC(=O)O)s1,-1.7
CN1CCCN(CC(=O)NC2CCN(C(=O)c3ccccc3)CC2O)CC1 (stereo not drawn),0.03
CCN(C(=O)Cn1nc(Cc2cccnc2)c2ccccc2c1=O)c1cc(C)ccc1C,-0.64
Cc1[nH]c2ccccc2c1C1(O)C(=O)N(Cc2ccc(Cl)cc2)c2ccccc21 (stereo not drawn),-2
COc1cccc(-c2csc(-c3c(N)c(C(=O)c4ccccc4)n4ccccc34)n2)c1,-1.4
CCC(C(=O)N1CCC2(CC1)Nc1ccccc1NC2=O)N1CCOCC1 (stereo not drawn),0.17
COc1ccc(F)c(CN2CCCC(O)(CN(C)CCC(C)(C)O)C2=O)c1 (stereo not drawn),-0.87
CCOC(=O)c1c(NC(=O)c2nc(SCC)ncc2Cl)sc2c1CCCC2,-0.55
Cc1ccc(Cl)cc1NC(=O)Nc1c(C)n(C)n(-c2ccccc2)c1=O,0.85
COc1ccccc1CNC(=O)c1cc2sccc2n1Cc1ccc(F)cc1,2.6
COc1ccc(Nc2nnc(-c3ccc(C)c(S(=O)(=O)NCc4nc5ccccc5[nH]4)c3)c3ccccc23)cc1,0.05
OC1CCN(c2ccnc(NC3COCC3Cc3ccnc4ccccc34)n2)CC1 (stereo not drawn),-2.1
Nc1c(C(=O)Nc2cccc(Cl)c2)sc2nc3c(cc12)CN(Cc1ccccc1)CC3,0.37
COc1ccc(Cn2c(CCC(=O)Nc3cc(OC)c(OC)c(OC)c3)nc3cccnc32)cc1,0.48
CCN1C(=O)c2ccccc2S(=O)c2ccc(C(=O)N3CCN(c4ccccc4)CC3)cc21 (stereo not drawn),-0.04
CC(C)c1nc(CN2CCC(c3n[nH]c(=O)n3-c3ccccc3)CC2)co1,0.33
Cc1ccccc1Nc1c(-c2ccc(N3CCOCC3)cc2)nc2ccc(Cl)cn12,1.8
Cc1cc(C)c(NC(=O)CSc2nc(C)cc(C)c2C#N)c(C)c1,0.3
CC(C)(C)C1CCc2c(sc(NC(=O)Cn3nnc(-c4ccccc4F)n3)c2C#N)C1 (stereo not drawn),-2.1
O=c1c2cccnc2n(Cc2ccccc2F)c(=O)n1Cc1ccccc1Cl,0.02
CN[C@@H]1C(OC2[C@H](O[C@H]3[C@H](O)[C@@H](O)[C@H](N=C(N)N)[C@@H](O)[C@@H]3N=C(N)N)OC(C)[C@]2(O)CO)OC(CO)C(O)C1O (stereo partly drawn),0.38
COc1cccc(-c2nc(SCC(=O)NCC3CCCO3)c(-c3ccc(Cl)cc3)[nH]2)c1 (stereo not drawn),-2
Cc1cccc(-c2nc(CNC(=O)C3CC(=O)N(C(C)C)C3)cs2)c1 (stereo not drawn),-0.98
CCn1c(=O)c2cc(C(=O)NCCc3cccc(C)c3)sc2c2ccccc21,0.61
Cc1ccc(F)cc1C(=O)N1CC2c3ccccc3OC[C@]2(C(=O)O)C1 (stereo partly drawn),0.66
Cc1cnn(C(C)C(=O)N2CCCN(c3noc(C4CC4)n3)CC2)c1 (stereo not drawn),-0.5
COc1ccc(CCNc2nc(-c3ccc(C)cc3)cc(C(F)F)n2)cc1OC,0.26
Cc1ccc(-c2cc3c(n2-c2ccccc2F)CC(C)(C)CC3=O)cc1,-0.36

# Two records picked at random from the list so far, as already listed:
SMILES,fixLJ activator
CCCCCCC1CCC(C(=O)NC(C(=O)O)C(C)C)CC1 (stereo not drawn),-1.5
CCOC(=O)COc1ccc(C)cc1C(=O)c1ccn2nc(-c3ccc(Cl)cc3)cc2n1,-0.27

# Further compounds follow:
SMILES,fixLJ activator
CC(C)Oc1ccc(C(=O)N(Cc2ccco2)Cc2cccs2)cc1,0.79
COc1c(C)cccc1C(=O)Nc1ccc(Cl)c(-c2nc3cc(C)ccc3o2)c1,1
CC1=C(/C=C/C(C)=C/C=C/C(C)=C/C=C/C=C(C)/C=C/C=C(C)/C=C/C2=C(C)CCCC2(C)C)C(C)(C)CCC1,-0.87
CC(=O)N1CCc2c(sc3c2c(=O)n(-c2ccccc2)c(=O)n3CC(=O)c2ccccc2)C1,-0.41
Cc1nnc(CNC(=O)c2ccccc2S(=O)(=O)Cc2ccccc2)o1,-1.4
Cn1c(CN2CCCCC2)nnc1C1CCN(C(=O)CC2CC2)CC1,1.7
CC1(C)NC(=O)N(c2ccc([N+](=O)[O-])c(C(F)(F)F)c2)C1=O,-2.4
CCc1ccc(NC(=O)Cn2nnc(C(=O)NCc3ccco3)c2N)cc1,-0.83
Cc1ccc2cccc(OCCNC(=O)C(C)n3ccnc3C(C)C)c2n1 (stereo not drawn),-3.1
CC(=O)c1cccc(NC(=O)CCS(=O)(=O)c2ccc(Br)s2)c1,-1.4
CCSCCN(C(=O)Nc1ccc[nH]c1=O)C1CCCCC1,-0.3
O=C(NCCCc1nc2ccccc2n1Cc1ccc(Cl)cc1)C1CCCCC1,-3.5
COc1ccc(CCNC(=O)C2CCCN(S(=O)(=O)c3ccc4c(c3)oc(=O)n4C)C2)cc1OC (stereo not drawn),-1.9
COc1ccccc1NC(=O)c1oc2ccccc2c1NC(=O)c1cccc(OC)c1OC,1.5
Cc1ccc(NC(=O)C2CCCN(c3cnccn3)C2)cc1Cl (stereo not drawn),-1.9
CN1C(=O)c2[nH]nc(-c3ccc(F)cc3)c2C1c1ccccn1 (stereo not drawn),0.33
CCC12CN3CC(CC)(CN(C1)C3c1ccccn1)C2=O (stereo not drawn),-1.5
CC(C)c1ccc(C2NC(=O)c3n[nH]c(-c4cccs4)c32)cc1 (stereo not drawn),-1.7
CO[C@@]12CCC(OCCO)CC1N(C(=O)c1ccc(C(C)(C)C)cc1)CC2 (stereo partly drawn),-0.89
Cc1csc(CCNC(=O)N2CCCC2c2nc3ccc(F)cc3[nH]2)n1 (stereo not drawn),-1.7
Cn1cc(C(=O)N2CCN(c3cccc(Cl)c3)CC2)c(=O)c2cc(S(=O)(=O)N3CCCC3)ccc21,0.14
Cn1c(=O)c2cc(C(=O)NCCCN3CCN(c4ccc(F)cc4)CC3)sc2c2ccccc21,-1.1
O=C(CCCCn1c(=O)c2ccccc2n(CC(=O)Nc2cccc(F)c2)c1=O)NCc1ccccc1Cl,-0.24
O=C(O)c1cnc(NCCN2CCC(c3ccccc3)C2)c(Cl)c1 (stereo not drawn),0.05
Cc1oc(-c2cccc(Cl)c2)nc1CS(=O)(=O)CC(=O)NCc1ccccc1Cl,-0.31
Cc1ccc(N2CCC(CNS(=O)(=O)c3ccc(-c4onc(C)c4C)o3)C2)cc1 (stereo not drawn),-2.8
COc1cc(C(=O)O)cc(C(=O)N2CCCC2c2n[nH]c(C)n2)c1 (stereo not drawn),0.72
Cc1ncc(CO)c(CO)c1O,-0.58
CC(C)=CCN1CCC2(CCC(CNC(=O)CSc3nnc(C)o3)O2)CC1 (stereo not drawn),-1.1
O=C(NCC1CCN(S(=O)(=O)c2cccc(Cl)c2)CC1)c1cscn1,-0.28
COc1cc(C2C(C(=O)Nc3ccccc3)=C(C)Nc3nnnn32)cc(OC)c1OC (stereo not drawn),-0.11
COc1ccc(-n2c(=O)c3c4c(sc3n(Cc3ccccc3)c2=O)CN(C(C)=O)CC4)cc1OC,-0.12
O=S(=O)(NCCSc1nnnn1-c1ccccc1)c1ccc(F)cc1,-2.1
CCCCCn1c(=O)[nH]c2cc(C(=O)NCc3ccc(OC)cc3)ccc2c1=O,0.88
COc1cc(C(=O)Nc2sc3c(c2C(N)=O)CCC(C)C3)cc(OC)c1OC (stereo not drawn),-0.27
CC1=C(C(=O)Nc2cccnc2)C(c2ccccc2)n2nc(SCc3ccccc3F)nc2N1 (stereo not drawn),-3.2
CC(C(=O)Nc1ccc(F)cc1)N(C)Cc1cnc2ccccc2n1 (stereo not drawn),1.4
CCOc1ccc(NC(=O)Cn2cc(C(=O)c3ccc(C)cc3)c(=O)c3cc4c(cc32)OCO4)cc1,-0.63
COc1ccc(-c2cc(C(F)(F)F)nc(SCC(=O)NCCc3ccc(OC)c(OC)c3)n2)cc1,-0.4
COc1cc(NC(=O)NCCN2CCN(c3ccccc3)CC2)cc(OC)c1OC,-0.05
O=C(CCS(=O)(=O)c1nc(-c2ccc3c(c2)OCO3)cc(C(F)(F)F)n1)Nc1ccccc1F,-1.4
O=C(NCC1CCCN(CCc2ccccc2)C1)c1onc2c1CCCC2 (stereo not drawn),-0.53
Cc1ccc2c(c1)c(=O)c(S(=O)(=O)c1ccc(F)cc1)cn2CC(=O)Nc1ccc2c(c1)OCO2,-0.42
CCc1ccc(NS(=O)(=O)c2c(C)nc3sc(CC)nn3c2=O)cc1,-1.7
NC(=O)NC1NC(=O)NC1=O (stereo not drawn),0.17
CN1CCc2nc3sc(C(=O)c4ccc(F)cc4)c(N)c3cc2C1,0.72
CCc1nnc(NC(=O)c2nc(S(C)(=O)=O)ncc2Cl)s1,-0.74
Cc1ccc2oc(-c3cc(NC(=O)CC(C)C)ccc3Cl)nc2c1,-0.1
Cn1c(N2CCC(O)C2)nc2cc(C(=O)NCCCc3csc(N)n3)ccc21 (stereo not drawn),-0.22
